Screening results deposited in PubChem BioAssay by several laboratories.
RN4220 kill – S. aureus RN4220 growth inhibition; OD600, 16 h; inhibition, % (concentration not given with the values); 0.33% of 330,000 active;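 active means z-score of -3 or lower and OD600 up to 0.18 on both plates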;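 further: plate controls were untreated cells for no effect and reference antibiotic for full effect; stock transfer was 100 nL into about 80 µL; one replicate is shown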
PrP UTR inh – suppresses PrP 5' UTR mRNA reporter expression; cell-based PrP 5' UTR mRNA reporter, plate reader; inhibition, % (test concentration not listed); 0.35% of 340,000 active;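 active means every replicate at 50% or more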;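 further: 0 = median of the neutral control wells; tested in H4 reporter cells; numbers are from one replicate; inactives centre near -14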
BJeLR viability – BJeLR cell viability loss. BJeLR (HRASV12) viability, CellTiter-Glo ATP luminescence, 48 h; reference of the scale not given here. inhibition, % (concentration not given with the values). 0.17% of 300,000 active;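 active means replicate mean above 50%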;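 further: 50 nL library stock added to about 25 µL; numbers are from one replicate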
Mtb hypoxia inh – inhibitors of hypoxia-regulated fluorescent reporter in Mycobacterium tuberculosis; AID 1159583; fluorescence inhibition, % (no concentration beside the values); 0.1% of 300,000 active; M. tuberculosis hypoxia-regulated fluorescent reporter, fluorescence;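 active means 35 to 45% if threefold the growth effect, above 45% if 1.5-fold the growth effect; inactive means the rest, general growth blockers included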;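 further: wells of about 50 µL received 100 nL stock; 0% = vehicle wells and 100% = reference inhibitor wells; whole bacteria with a GFP reporter of the hypoxia response; strong numbers were not always called active; many hits fall short of the cut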
Autofluor counter – flagged as autofluorescent in microsphere protease counterscreen; compound autofluorescence counterscreen, microsphere flow cytometry; active compounds read high; fluorescence intensity (concentration not given with the values); 3.1% of 360,000 active; AID 624483;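 active means at least 3 SD above the mean of all compounds, about 16000 in these data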;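 further: 100 nL of 1 mM stock went into each well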
ugtP null kill – compounds lethal to S. aureus RN4220 ugtP deletion mutant; 0.54% of 330,000 active; OD600 growth, 16 h; some inactives read as strong as hits; growth inhibition, % (concentration not given with the values);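 active means z-score under -3 and OD600 up to 0.15 on both plates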;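 further: plate controls were untreated wells for no effect and antibiotic for full effect; wells of about 80 µL received 100 nL stock; the first replicate is given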
Mtb hypoxia inh growth – also measured in Mtb hypoxia inh; calls as there; growth inhibition, %; measured here: M. tuberculosis growth (absorbance);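 0% = vehicle and 100% = reference antibiotic; read after six days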
Active calls of the source: *; · = not tested or not shown. This is a random part of the collection, and some 4% of all compounds hit somewhere here.

compound | RN4220 kill | PrP UTR inh | BJeLR viability | Mtb hypoxia inh | Mtb hypoxia inh growth | Autofluor counter | ugtP null kill
O=C(N/N=C/c1ccccc1F)c1cccc2ccccc12 | · | -39 | 10 | · | · | 3750 | ·
Cn1cc(C(=O)c2ccccc2C(=O)O)cc1C(=O)C(Cl)(Cl)Cl | 0.9 | -15 | 0 | 4 | -5 | 3126 | -4
COc1ccccc1Nc1nnc(SC(C)C(=O)NC2CC2)s1 (configuration not stated) | -1.5 | 2 | · | -5 | 3 | 3103 | -2
O=C(Cc1csc(NC(=O)Nc2ccc(Cl)cc2)n1)NCc1cccnc1 | -3.5 | -20 | 6 | 5 | 5 | 6172 | -7
COc1ccc(-c2noc(COc3ccccc3OC)n2)cc1OC | 2.0 | -25 | -2 | 6 | 2 | 5853 | 2
Cc1ccc(S(=O)(=O)N(C)CC(=O)N2CCCCCCC2)cc1 | 4.5 | -20 | 4 | 10 | 10 | 6455 | -4
Cc1ccc([N+](=O)[O-])cc1S(=O)(=O)Nc1ccc(O)c(Sc2ncn[nH]2)c1 | 0.2 | -5 | -6 | 8 | 8 | 6146 | 0
CC(=O)Oc1ccc(/C=C(\NC(=O)c2ccco2)C(=O)NCc2ccccc2)cc1 | 0.3 | -14 | -2 | 20 | 6 | 3002 | 4
CCOC(=O)c1ccc(NC(=S)N2CCN(c3ccc(N4CCOCC4)nn3)CC2)cc1 | 4.4 | 1 | 6 | 2 | 4 | 2427 | -6
O=c1c(N=Nc2ccc(O)cc2)c(-c2ccccc2)[nH]n1-c1ccc([N+](=O)[O-])cc1 | · | 1 | 4 | · | · | 4042 | ·
CCOC(=O)C1=C(Nc2ccccc2)CC(C)(O)C(C(=O)OCC)C1c1ccccc1 (configuration not stated) | 3.2 | -8 | 3 | -9 | -8 | 2138 | 0
Cc1cc(C(=O)NNC(=O)[C@H](C)NC(=O)c2ccc(Br)cc2)c(C)o1 | 4.5 | -12 | · | 25 | 4 | 2835 | 12
CC1(C)Cc2c(sc(N=CN3CCOCC3)c2C#N)C(C)(C)N1 | 21 | · | · | -7 | -9 | · | 16
O=C(/C=C/c1cccs1)c1cc(Br)ccc1OC(=O)N1CCOCC1 | -4.8 | -14 | -4 | · | · | 3393 | -3
O=C(NN=Cc1cccnc1)c1ccccc1OCc1cccc(Br)c1 | 8.4 | · | · | -2 | 7 | · | -1
O=C(O)C1CCC(CN(Cc2cccc(Br)c2)C(=S)Nc2ccccc2F)CC1 (configuration not stated) | 6.5 | -12 | 1 | -4 | -1 | 3977 | 22
Cc1cc(N2CC(C)OC(C)C2)nc2ccccc12 (configuration not stated) | 8.1 | -18 | 4 | 6 | -2 | 4594 | 3
Cc1[nH]c2ccc(C(=O)NC3CCC(C)CC3)cc2c1C (configuration not stated) | -1.9 | -24 | 3 | -6 | 9 | 3948 | -12
COC(=O)c1cc2oc(C)cc2n1CC(=O)N1CCCc2ccccc21 | -1.0 | -19 | -6 | -7 | -9 | 4387 | -6
Cc1cccc(C)c1OCc1n[nH]c(=S)n1-c1ccccc1 | 12 | -2 | 22 | 12 | -1 | 4159 | 7
COc1cc(C)ccc1OCCCON1C(=O)CCC1=O | 2.2 | -6 | 3 | 3 | 4 | 15862 | 4
Cn1cnc([N+](=O)[O-])c1Nc1cccc(O)c1 | 2.2 | -14 | -3 | 6 | 3 | 3137 | -4
Cc1ccc(-c2nn3c(C)nnc3s2)cc1NC(=O)c1ccc(Br)o1 | -1.5 | -19 | 0 | · | · | 6044 | 14
Cc1nc2nc(COc3ccccc3)nn2c(C)c1Cl | 7.3 | -38 | · | · | · | 3742 | 0
COC(=O)c1nc2n(n1)C(c1ccc([N+](=O)[O-])cc1)C(C(=O)Nc1ccc(Cl)cc1)=C(C)N2 (configuration not stated) | 4.8 | -5 | 5 | 1 | 5 | 2389 | -4
CC(=NOC(=O)C1CC1)C1CC1c1ccc(F)cc1 (configuration not stated) | 3.1 | · | · | 8 | -3 | · | 5
CCOc1ccc(N(CC(=O)Nc2cc(C)cc(C)c2)S(C)(=O)=O)cc1 | 1.7 | -14 | -2 | 2 | -3 | 4014 | -3
CC(C)(C)CC(=O)Nc1ccc(-c2cn3cccnc3n2)cc1 | 1.5 | -43 | -3 | -2 | 11 | 3774 | -4
COc1ccc(S(=O)(=O)c2nnn(-c3cccc(Cl)c3)c2N)cc1 | -0.5 | -12 | -4 | 4 | 11 | 2027 | 15
CN(C)c1ccc(NC(=O)Nc2cccc3ccccc23)cc1 | 0.8 | -40 | 0 | 16 | 21 | 3376 | 3
O=C(CSc1ccc2ccccc2n1)NC1CC1 | 2.4 | -6 | · | -3 | 7 | 3784 | 2
Cc1nc(Nc2ccc(S(=O)(=O)N3CCCCC3C)cc2)c2nnn(Cc3ccccc3)c2n1 (configuration not stated) | · | -22 | -2 | · | · | 2401 | ·
COCCn1c(-c2ccc(OC)cc2)cnc1SCC(=O)Nc1cc(C)on1 | 0.1 | -22 | -4 | · | · | 4664 | 4
Cc1c(NC(=O)Nc2ccc(Cl)c(Cl)c2)sc(=S)n1C | · | -8 | 5 | · | · | 2841 | ·
Oc1cccc(C(=S)N2CCC(Cc3ccccc3)CC2)c1 | 0.9 | -26 | 4 | -6 | 0 | 3683 | -4
O=C(NCc1nc2ccccc2[nH]1)C1=C[C@@H](c2csc3ccccc23)C[C@@H](OCCCCO)O1 | · | -6 | 8 | · | · | 3594 | ·
CCOC(=O)c1ccc(NC(=S)Nc2ccccc2)cc1 | 2.4 | -29 | 5 | 3 | 4 | 2391 | -9
CCOc1ccc(-n2c(SCc3cc(=O)oc4cc(C)ccc34)nnc2-c2cccnc2)cc1 | 2.4 | 0 | -6 | 0 | 2 | 7884 | -8
O=C(NN1C(=O)/C(=C/c2ccc(O)c([N+](=O)[O-])c2)SC1=S)c1ccccc1Cl | 16 | -17 | -1 | 20 | -1 | 4598 | -8
O=C(O)c1ccc(-n2cncn2)c([N+](=O)[O-])c1 | 0.3 | 1 | -10 | -19 | 3 | 5037 | -1
N/C(=N\OC(=O)CC1CCCCC1)c1ccccn1 | 4.3 | -70 | 6 | 12 | -4 | 9273 | 12
Cn1c(CNC(=O)c2ccco2)nnc1SCC(=O)Nc1c(F)cc(F)cc1Br | 3.4 | -16 | 2 | -11 | -11 | 4300 | 4
CCOc1ccc(NS(=O)(=O)c2ccc(NC(=O)c3ccccc3C(=O)O)cc2)cc1 | 1.7 | -18 | -10 | 7 | -8 | 5352 | -1
O=C(O)Cn1nnnc1-c1ccc(F)cc1 | 2.3 | -13 | -3 | 6 | 2 | 21941* | 2
CCOc1ccc(C(=O)N[C@H](C(=O)Nc2ccccc2OC)C(C)C)cc1 | 3.6 | -29 | 1 | 7 | 6 | 3828 | 14
Cc1ncsc1CCOC(=O)c1ccccc1 | 10 | -42 | 1 | 3 | 4 | 2227 | 7
Cc1ccc(-c2n[nH]c(=S)n2/N=C/c2c(C)nn(-c3ccccc3)c2C)cc1 | · | 1 | -2 | · | · | 2453 | ·
O=c1c(Cl)c(Nc2cccc(Cl)c2)cnn1-c1nc2ccccc2s1 | 23 | -34 | -6 | 4 | 2 | 2667 | -5
COc1cccc(/C=N/NC(=O)c2ccc(N3CCCC3=O)cc2)c1 | · | -26 | 7 | · | · | 4932 | ·
Cc1[nH]c2ccc(Br)cc2c(=O)c1CN1CCOCC1 | 2.0 | -6 | -4 | · | · | 3401 | 8
O=C(O)C1CCCCN1S(=O)(=O)c1ccccc1 (configuration not stated) | 14 | -17 | -4 | · | · | 2472 | 5
N#Cc1ccc2ccn(CC(=O)N3CCCc4ccccc43)c2c1 | 3.3 | -9 | 0 | 9 | 3 | 4502 | -6
O=CN1CCN(C(=O)c2ccc3c(c2)OCO3)CC1 | 3.8 | -21 | 3 | 9 | -7 | 6219 | 14
CN1C(=O)C2C(C=Cc3ccccc3)N3C(=O)CN(Cc4ccc(-c5ccccc5)cc4)C(=O)[C@@]3(Cc3ccccc3)C2C1=O (some centres not stated) | 0.4 | · | · | -3 | 5 | · | 9
NC(=O)Cn1c(=O)n(CCc2ccccc2)c(=O)c2c3c(sc21)CCCC3 | 6.6 | -22 | 2 | 5 | -2 | 16478* | 13
O=[N+]([O-])c1ccc(Oc2cccc(F)c2)c2ccncc12 | 12 | -5 | -6 | · | · | 2420 | 15
COc1cc(/C=C(\C#N)C(=O)Nc2cccc(C(=O)O)c2)ccc1OCc1ccc(C)cc1 | -0.7 | -153 | -20 | 6 | 6 | 5040 | 12
CC1(C(=O)NCc2cccnc2)CCC(=O)N1Cc1cccs1 (configuration not stated) | 3.5 | -21 | -5 | 1 | -5 | 5725 | 6
O=C1CC(N2CCSCC2)C(=O)N1c1ccc(F)cc1 (configuration not stated) | 1.8 | -110 | 4 | 18 | 13 | 5250 | -1
O=C(NCC1CC1)c1onc(CSc2ccncc2)c1C(=O)NCC1CC1 | 7.8 | -10 | 3 | -7 | -1 | 2980 | 6

Continuation.
compound | RN4220 kill | PrP UTR inh | BJeLR viability | Mtb hypoxia inh | Mtb hypoxia inh growth | Autofluor counter | ugtP null kill
COc1ccc(CC2(CO)CCN(Cc3cccc4nccnc34)CC2)cc1 | 2.9 | -12 | 11 | 10 | 6 | 4488 | 6
Cc1ccc(CNC(=O)CSCc2ccccc2)cc1 | 1.3 | -38 | -2 | -3 | 2 | 4714 | -9
Cc1nn(-c2ccccc2)c(N2CCCC2)c1C=NNC(=O)c1cc(-c2cccnc2)nc2ccccc12 | -2.4 | · | · | -9 | 22 | · | -12
COCc1cc(C)nc2sc(C(=O)Nc3ccccc3C)c(N)c12 | 0.8 | -23 | -3 | 5 | 3 | 3822 | 5
Cc1nc(Nc2ccccc2F)c2oc3ccccc3c2n1 | 16 | 2 | -7 | 13 | 5 | 3561 | 2
Fc1ccc(N2CCN(Cc3ccccn3)CC2)cc1 | 1.8 | -16 | -4 | 0 | 1 | 4326 | 13
COc1ccc(OC)c(NC(=O)Cc2coc3cc(C)cc(C)c23)c1 | 3.4 | -17 | -1 | 9 | 7 | 22476* | -7
O=C(CCc1ccccc1)Nc1nc2ccc(S(=O)(=O)N3CCOCC3)cc2s1 | 6.5 | -10 | 1 | · | · | 2293 | -3
O=C1NC(=S)S/C1=C1\Sc2ccccc2N1CCCS(=O)(=O)O | 1.9 | -12 | -7 | · | · | 5045 | 11
O=C(Nc1ccccc1)NC1(C(=O)NCc2ccco2)CCCCC1 | 3.5 | -8 | -4 | 7 | 2 | 17118* | 4
CCn1nnnc1SCC(=O)N1CCOCC1 | -0.7 | -1 | 0 | · | · | 4863 | -4
C/C=N\NC(=O)CNC(=O)CNC(=O)c1ccccc1 | · | -3 | -1 | · | · | 4506 | ·

Part of the list above in order of count of non-hydrogen atoms, ascending.
compound | RN4220 kill | PrP UTR inh | BJeLR viability | Mtb hypoxia inh | Mtb hypoxia inh growth | Autofluor counter | ugtP null kill
O=C1NC(=S)S/C1=C1\Sc2ccccc2N1CCCS(=O)(=O)O | 1.9 | -12 | -7 | · | · | 5045 | 11
COc1ccc(CC2(CO)CCN(Cc3cccc4nccnc34)CC2)cc1 | 2.9 | -12 | 11 | 10 | 6 | 4488 | 6
O=C(CCc1ccccc1)Nc1nc2ccc(S(=O)(=O)N3CCOCC3)cc2s1 | 6.5 | -10 | 1 | · | · | 2293 | -3

Reprinted at random: five compounds from above.
compound | RN4220 kill | PrP UTR inh | BJeLR viability | Mtb hypoxia inh | Mtb hypoxia inh growth | Autofluor counter | ugtP null kill
CCn1nnnc1SCC(=O)N1CCOCC1 | -0.7 | -1 | 0 | · | · | 4863 | -4
COc1ccc(CC2(CO)CCN(Cc3cccc4nccnc34)CC2)cc1 | 2.9 | -12 | 11 | 10 | 6 | 4488 | 6
Cc1nc(Nc2ccccc2F)c2oc3ccccc3c2n1 | 16 | 2 | -7 | 13 | 5 | 3561 | 2
C/C=N\NC(=O)CNC(=O)CNC(=O)c1ccccc1 | · | -3 | -1 | · | · | 4506 | ·
O=C1NC(=S)S/C1=C1\Sc2ccccc2N1CCCS(=O)(=O)O | 1.9 | -12 | -7 | · | · | 5045 | 11
